A1 inh: inhibitors of the anti-apoptotic protein A1, read as caspase activation; MEF A1-2A-BIM cells, Caspase-Glo 3/7 luminescence, 3 h; percent of clofoctol response, vehicle zero; AID 2462; 0.066% of 330,000 active; caspase activation, % (no concentration beside the values);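 active = over half of replicate activation scores above 10%, or exactly half above 10 with the replicate mean above 10; inconclusive = replicate mean below 10 yet half the replicates above 10; inactive = over half of replicates below 10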;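 note: wells of about 30 µL received 50 nL stock; many hits fall short of the cut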
Beta cell apopt: blocks beta cell apoptosis; 0.8% of 300,000 active; protection from apoptosis, % (concentration not given with the values); INS-1E cytokine-induced death, ATP luminescence, 48 h; percent of positive-control rescue, neutral wells zero;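 active = all replicates at 75% or more, or half of them and the mean; inconclusive = half reach 75% but not the mean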;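 note: 0% = cytokine-treated negative control wells and 100% = positive control rescue; higher means more ATP so stronger rescue from cytokine killing; wells of about 40 µL received 100 nL stock; the first replicate is given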
Beta2AR agonist: agonists of human beta-2 adrenergic receptor inducing internalization; AID 504454; Am2.2-beta2AR cells, FAP receptor internalization, flow cytometry; reference of the scale not given here; 0.43% of 340,000 active; P07550; response, % (no concentration beside the values);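 active = response above a set limit, near 3 SD of response in nonfluorescent compounds, cut at about 42% in these data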;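 note: stock transfer was 100 nL into about 11 µL; a reference agonist was the positive control; negative values mostly stem from fluorescent compounds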
Target sequence (P07550 whole entry, looked up): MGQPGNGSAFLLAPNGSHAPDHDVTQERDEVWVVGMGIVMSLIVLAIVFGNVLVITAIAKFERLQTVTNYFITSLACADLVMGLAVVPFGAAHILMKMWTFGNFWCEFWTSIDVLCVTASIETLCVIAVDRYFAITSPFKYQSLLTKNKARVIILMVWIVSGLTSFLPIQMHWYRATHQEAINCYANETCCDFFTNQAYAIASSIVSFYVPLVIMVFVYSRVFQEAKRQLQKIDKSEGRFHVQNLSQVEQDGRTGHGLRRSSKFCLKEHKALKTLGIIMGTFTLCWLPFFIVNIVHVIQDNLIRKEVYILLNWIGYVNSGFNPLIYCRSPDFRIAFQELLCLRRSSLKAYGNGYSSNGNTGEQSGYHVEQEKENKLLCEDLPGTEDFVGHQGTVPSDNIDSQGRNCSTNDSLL
LANA-H2A inh: blocks KSHV LANA binding to histone H2A/H2B; cell-free LANA-H2A/H2B peptide, fluorescence polarization; inhibition, % (concentration not given with the values); 0.6% of 320,000 active; AID 2629; in the data active = inhibition mostly above about 10%, no sharp cut-off; inactive = mostly below about 6.7%;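 note: stock transfer was 7.5 nL into about 10 µL; 0% = median of vehicle wells and 100% = median of positive control wells; one replicate is shown; the record names a cut of 25% in any replicate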
T cruzi repl: T. cruzi replication inhibition; T. cruzi beta-gal in NIH3T3, luminescence, 90 h; AID 1885; inhibition, % (concentration not given with the values); 1.4% of 300,000 active;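 active = mean inhibition across valid replicates above about 55%, limit read from the data; inconclusive = mean below that limit but half or more replicates reach it; inactive = mean below it, under half of replicates reach it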;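 note: signal also drops with host cell toxicity which is not excluded here; 0% = plate median of DMSO wells and 100% = zero luminescence signal; higher percent means less beta-gal luminescence so fewer parasites; stock transfer was 50 nL into about 50 µL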
RanGTP-Imp inh: inhibitors of RanGTP-importin-beta interaction, primary screen, biochemical, FRET, CFP-Ran, YFP-importin-beta, homogeneous | 1.1% of 300,000 active | cell-free CFP-Ran/YFP-importin-beta FRET ratio | AID 2216 | inhibition, % (test concentration not listed);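 active = most replicates above 15%; inconclusive = exactly half above 15%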;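 note: 0% = DMSO wells and 100% = Ran loaded with GDP instead of GTP; wells of about 40 µL received 100 nL stock; the first replicate is given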
UCH37 DUB inh: blocks the human deubiquitinase UCH37; 0.33% of 330,000 active; AID 588478; inhibition, % (test concentration not listed); purified proteasome/UCH37, Ub-AMC cleavage fluorescence; Q9Y5K5;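 active = mean of two replicates above 20%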;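 note: 0% = compound-free wells with enzyme and 100% = wells lacking proteasome; stock transfer was 100 nL into about 20 µL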
Target sequence (Q9Y5K5 whole entry, looked up): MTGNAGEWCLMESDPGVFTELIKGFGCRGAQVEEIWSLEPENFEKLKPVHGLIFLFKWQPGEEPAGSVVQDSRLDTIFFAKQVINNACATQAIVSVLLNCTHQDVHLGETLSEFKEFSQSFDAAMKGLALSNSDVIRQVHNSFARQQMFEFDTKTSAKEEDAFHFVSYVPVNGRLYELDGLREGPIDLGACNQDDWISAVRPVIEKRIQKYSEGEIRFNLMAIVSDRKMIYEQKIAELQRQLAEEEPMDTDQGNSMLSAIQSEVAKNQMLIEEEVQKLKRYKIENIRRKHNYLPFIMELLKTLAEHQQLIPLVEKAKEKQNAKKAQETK
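Material: human UCH37 enzyme supplied as purified proteasome complex / Amount: 0.15 nM proteasome as dispensed / Buffer or medium: pH 7.4 Tris-HCl (50 mM) with ovalbumin, ATP-MgCl2, DTT / Times: preincubation 30 min, reaction 25 min, room temperature / Technique: AMC fluorescence from Ub-AMC cleavage, excitation 355 nm, emission 460 nm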
Calb FLC: C. albicans growth modulation with fluconazole; C. albicans CaCi-2 (fluconazole-resistant clinical isolate) + fluconazole, Alamar Blue growth, 48 h; growth inhibition, % (concentration not given with the values); 0.57% of 300,000 active;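 active = most replicates above 75%; inconclusive = exactly half above 75%; inactive = most below 75%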;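 note: all wells also contain fluconazole at 8 µg/ml as a sub-toxic cotreatment; 0% = median of DMSO wells and 100% = median of geldanamycin control wells; wells of about 8 µL received 7.5 nL stock; the first replicate is given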
Numbers without * were called inactive; ? = inconclusive; . = not tested or not shown. This is a random part of the collection; any-hit rate near 4.3%.

1: CCOc1ccccc1NS(=O)(=O)c1ccc2[nH]c(=O)[nH]c2c1
2: CN(Cc1ccon1)C(=O)CC1C(=O)NCCN1CC(C)(C)C (stereo not given)
3: CC1CCC(NC(=O)CCC(=O)N2CC(C)Oc3ccccc32)CC1 (stereo not given)
4: O=C1CC(c2ccccc2)CC(O)=C1C=NCc1ccccc1 (stereo not given)
5: N#Cc1ccc(NC(=O)c2cc(-c3cccs3)on2)cc1
6: NNC(=O)c1cc(-c2ccc(O)cc2)nc2ccc(Br)cc12
assay / entry	1	2	3	4	5	6
A1 inh	-0.3	0.7	.	0.8	-0.2	1.5
Beta cell apopt	-5	-6	.	5	-1	1
Beta2AR agonist	5	8	-10	-13	-3	-3
LANA-H2A inh	0.3	-0.9	.	2.4	-9.9	1.2
T cruzi repl	-15	2	-1	-6	-11	-7
RanGTP-Imp inh	1.2	0.5	3.4	0.8	-1.1	0.8
UCH37 DUB inh	3.2	-2.4	4.0	4.3	-4.9	5.3
Calb FLC	-6	-8	-4	13	-7	11

7: C=CCNC(=O)NC(=O)COC(=O)CCCSc1nc2ccccc2[nH]1
8: COCC(=O)N1CCN(c2nc3ccccc3o2)CC1
9: Cc1cc(C(=O)CN2C(=O)NC3(CCCc4sccc43)C2=O)c(C)n1-c1ccccc1 (stereo not given)
10: O=C(COc1ccc(Br)cc1)NC(=S)Nc1ccccc1N1CCOCC1
11: CN(CC(=O)Nc1ccc(F)cc1)C(=O)CCc1nc2ccccc2c(=O)[nH]1
12: CCOc1ccc(N2C(=O)CC(SC(=NC)Nc3ccc(F)cc3)C2=O)cc1 (stereo not given)
assay / entry	7	8	9	10	11	12
A1 inh	-0.6	-0.1	0.5	-0.5	-0.1	0.1
Beta cell apopt	1	-7	5	-2	0	-15
Beta2AR agonist	8	-4	13	1	4	-4
LANA-H2A inh	1.2	-0.7	1.3	-2.5	1.1	-2.7
T cruzi repl	-4	-6	11	-2	-9	3
RanGTP-Imp inh	-0.5	-2.7	-2.1	.	1.6	1.4
UCH37 DUB inh	1.9	2.3	3.4	4.1	1.3	3.1
Calb FLC	-14	10	4	.	-3	.

13: Cc1ccccc1C(=O)N1CCN(c2ccc(NC(=O)c3ccco3)cc2Cl)CC1
14: CC(C)COc1ccc(C(=O)Nc2ccc(N3CCOCC3)cc2N2CCOCC2)cc1
15: CC(C)Oc1cc(NC(=O)CS(=O)(=O)CC(=O)N(C)C)c(Cl)cc1Cl
16: CN1CCN(S(=O)(=O)c2ccc(N(C)Cc3ccc(OC(F)F)cc3)c([N+](=O)[O-])c2)CC1
17: NC(=O)CCC(NS(=O)(=O)c1ccc(Cl)cc1)C(=O)NCC1CCCCC1 (stereo not given)
18: CC1CCN(C(=O)Cn2c(=O)oc3cc(S(=O)(=O)N4CCCCC4)ccc32)CC1
assay / entry	13	14	15	16	17	18
A1 inh	0.1	0.4	-0.7	-0.2	0.9	2.3
Beta cell apopt	-6	9	-1	6	-12	5
Beta2AR agonist	11	6	2	6	-3	-1
LANA-H2A inh	-2.1	-1.8	-0.5	-0.9	-1.4	-5.1
T cruzi repl	25	11	3	28	6	-17
RanGTP-Imp inh	-3.6	8.3	-3.2	3.4	-2.2	-0.4
UCH37 DUB inh	4.5	1.1	0.3	0.9	4.5	1.8
Calb FLC	18	16	23	0	-9	-19

19: O=C(c1ccco1)N1CCN(C(=O)C2CC(c3ccc(Cl)c(Cl)c3)=NO2)CC1 (stereo not given)
20: COc1ccc(NC(=O)C(=O)N/N=C/c2cccnc2)cc1
21: CSc1nc(-c2ccccc2)cc(C)c1C#N
22: Cn1nc(C(=O)NCc2cccnc2)c2ccccc2c1=O
23: O=C(CCNC(=O)c1ccc(Cl)cc1)Nc1cccc(S(=O)(=O)N2CCCCC2)c1
24: CC(=O)NCCc1nc2cc(NC(=O)c3ccc(Cl)cc3)ccc2n1C
assay / entry	19	20	21	22	23	24
A1 inh	-0.1	-0.4	0.6	-0.1	0.0	-1.3
Beta cell apopt	-8	-3	-1	-3	-4	-2
Beta2AR agonist	-8	1	4	-5	-4	-1
LANA-H2A inh	-2.0	1.8	4.1	1.7	0.0	2.8
T cruzi repl	2	-1	-6	-15	.	4
RanGTP-Imp inh	-1.5	-0.3	-5.8	-5.3	.	-4.1
UCH37 DUB inh	3.1	.	-20	0.9	3.0	0.4
Calb FLC	15	4	14	-2	.	-5

Structures from the list above with an NH in an aromatic ring, in the order listed:
1: CCOc1ccccc1NS(=O)(=O)c1ccc2[nH]c(=O)[nH]c2c1
7: C=CCNC(=O)NC(=O)COC(=O)CCCSc1nc2ccccc2[nH]1
11: CN(CC(=O)Nc1ccc(F)cc1)C(=O)CCc1nc2ccccc2c(=O)[nH]1
assay / entry	1	7	11
A1 inh	-0.3	-0.6	-0.1
Beta cell apopt	-5	1	0
Beta2AR agonist	5	8	4
LANA-H2A inh	0.3	1.2	1.1
T cruzi repl	-15	-4	-9
RanGTP-Imp inh	1.2	-0.5	1.6
UCH37 DUB inh	3.2	1.9	1.3
Calb FLC	-6	-14	-3

Next part.
25: COC(=O)c1c(C(=O)OC)c2ccccn2c1C(=O)c1ccccc1
26: CCOC(=O)c1c(Nc2ccc(Cl)cc2)sc(/C=C2\C=Nc3ccccc32)c1O
27: Cc1cc(=O)cc(C)n1-c1ccc(Cl)c(Cl)c1
28: CCCCNc1ncnc2c1nnn2Cc1ccccc1Cl
29: CCOC(=O)N1CCN(C(=O)c2ccc3c(c2)N(C)C(=O)/C(=C\c2ccc(OCC)c(OC)c2)S3)CC1
30: Cc1cccc(OCCOc2ccccc2C=C(C#N)C#N)c1
assay / entry	25	26	27	28	29	30
A1 inh	0.6	-0.2	0.3	0.2	0.0	-0.6
Beta cell apopt	-5	8	-4	-7	.	0
Beta2AR agonist	10	-23	-2	-2	6	15
LANA-H2A inh	1.1	0.5	1.2	-1.3	-1.6	0.7
T cruzi repl	-6	7	-11	6	-4	-9
RanGTP-Imp inh	1.1	5.7	0.1	-1.0	1.9	2.7
UCH37 DUB inh	4.0	.	5.5	4.1	2.6	-1.1
Calb FLC	5	4	-1	-3	-4	9

31: CCOc1ccc2[nH]c(=O)c(C(c3nnnn3Cc3ccco3)N3CCCC(C)C3)cc2c1 (stereo not given)
32: CC(=O)Oc1ccccc1C(=O)Nc1ncc([N+](=O)[O-])s1
33: Cc1cc(C)c[n+](CC(=O)c2ccc(-c3ccccc3)cc2)c1
34: O=C(NCCc1ccc2c(c1)OCCO2)c1ccc([N+](=O)[O-])cc1Cl
35: O=C(COc1coc(CN2CCc3ccccc32)cc1=O)Nc1ccc([N+](=O)[O-])cc1
36: CCN1CC=C2C(C#N)=C(N)C(C#N)(C#N)[C@H](c3ccoc3)[C@H]2C1
assay / entry	31	32	33	34	35	36
A1 inh	0.6	-8.9	1.4	0.1	-0.2	-0.9
Beta cell apopt	3	.	-2	1	10	-1
Beta2AR agonist	0	.	2	-7	-3	-8
LANA-H2A inh	-1.2	5.6	-2.9	-0.7	-0.6	22
T cruzi repl	8	10	23	-2	4	41
RanGTP-Imp inh	11	-5.1	-0.7	-2.6	0.1	48*
UCH37 DUB inh	-39	.	-4.5	1.1	2.8	-78
Calb FLC	11	65	?	-11	-5	3

37: O=C(c1cn(Cc2ccccc2)nc1-c1cccnc1)N1CCc2ccccc2C1
38: N#CCCN(C(=O)COc1ccc(Br)cc1F)c1ccc(F)cc1
39: COc1cccc(OC)c1C(=O)Nc1ccc(N2CCCCC2)cc1
40: COc1ccccc1C(=O)NCC(=O)N1CCN(C/C=C/c2ccccc2)CC1
41: O=C(O)c1ccccc1C(=O)NC1CCN(c2nccc(C(F)(F)F)n2)CC1
42: CCN(CC)C(=O)c1ccc2c(c1[N+](=O)[O-])C(=O)c1ccccc1C2=O
assay / entry	37	38	39	40	41	42
A1 inh	0.8	0.8	1.5	1.7	0.1	-1.3
Beta cell apopt	5	-6	-2	10	-5	.
Beta2AR agonist	8	-4	3	15	0	.
LANA-H2A inh	1.8	2.0	-2.4	2.8	-2.1	1.8
T cruzi repl	.	2	12	.	5	-3
RanGTP-Imp inh	.	-3.3	-1.7	.	1.5	-0.4
UCH37 DUB inh	-0.7	4.4	-2.1	2.4	2.0	.
Calb FLC	.	5	-2	.	4	-11

43: CNC(=O)N(C1=NCCCCC1)c1ccc(Br)cc1
44: COc1ccc(NC(=O)CSc2nnc(Cc3ccccc3)c(=O)n2N)cc1OC
45: Cc1ccc2nc3c(c(N)c2c1)CCN3C
46: C=CCn1c(NC)cc(=O)n(C)c1=O
47: O=C(Nc1ccccc1[N+](=O)[O-])c1cc(S(=O)(=O)Nc2ccccn2)ccc1Cl
48: O=C(NC1CCCC1)C(c1ccccc1F)N(C(=O)c1ccco1)C1CCCC1 (stereo not given)
assay / entry	43	44	45	46	47	48
A1 inh	0.4	0.5	-3.4	-0.6	0.6	-0.3
Beta cell apopt	-3	.	12	-7	-7	-8
Beta2AR agonist	-1	1	7	-1	-1	-3
LANA-H2A inh	-1.2	2.5	-1.1	-1.7	1.3	6.3
T cruzi repl	-18	-8	28	-15	11	-4
RanGTP-Imp inh	0.7	6.9	-3.0	-2.8	3.1	-2.6
UCH37 DUB inh	1.9	5.5	.	2.4	4.7	5.6
Calb FLC	4	-6	-11	0	38	4

49: COC(=O)c1ccc(NC(=O)CSc2nnc(C(C)NC(=O)c3ccccc3Cl)n2C)cc1 (stereo not given)
50: COc1nc(-c2ccc(C)cc2)ccc1-c1noc(-c2cccnc2)n1
51: CC(=O)Nc1ccc(Nc2ncnc3c2cnn3-c2ccc(C)cc2C)cc1
52: Cc1ccc(C(=O)COC(=O)c2cc(=O)[nH]c3ccccc23)cc1C
53: COc1ccc(OCC(O)CNC(=O)c2ccccc2)cc1 (stereo not given)
54: COc1ccccc1C(=O)NCCC(=O)NCc1cccnc1
55: COc1ccc(C2c3ccc4ccccc4c3Oc3ncn(CCO)c(=N)c32)cc1OC (stereo not given)
56: Cc1cc(N2C(=O)C(O)=C(C(=O)c3ccco3)C2c2ccc([N+](=O)[O-])cc2)no1 (stereo not given)
assay / entry	49	50	51	52	53	54	55	56
A1 inh	0.3	-0.7	1.4	-1.1	-0.2	0.0	0.0	0.3
Beta cell apopt	.	1	2	0	-7	-6	4	-3
Beta2AR agonist	4	1	2	0	0	-6	21	3
LANA-H2A inh	-2.4	4.8	-0.5	1.4	1.3	-54	0.6	5.6
T cruzi repl	-4	7	6	-3	7	.	1	-12
RanGTP-Imp inh	-0.5	-4.9	0.4	37*	-1.8	.	0.1	1.1
UCH37 DUB inh	-2.0	-60	-1.5	-0.7	2.8	2.4	.	14
Calb FLC	2	11	-15	14	6	.	25	0

2 records drawn at random from the list so far:
50: COc1nc(-c2ccc(C)cc2)ccc1-c1noc(-c2cccnc2)n1
53: COc1ccc(OCC(O)CNC(=O)c2ccccc2)cc1 (stereo not given)
assay / entry	50	53
A1 inh	-0.7	-0.2
Beta cell apopt	1	-7
Beta2AR agonist	1	0
LANA-H2A inh	4.8	1.3
T cruzi repl	7	7
RanGTP-Imp inh	-4.9	-1.8
UCH37 DUB inh	-60	2.8
Calb FLC	11	6

Source: PubChem (several laboratories)
